TRPML1 agonist: qHTS for Agonists of the Human Mucolipin Transient Receptor Potential 1 (TRPML1); Mucolipin-1 (Homo sapiens), Q9GZU1; 410,000 tested, 0.12% active; TRPML1-expressing cells, Ca2+ dye fluorescence, FDSS; host cell line not named in the record; reference of the full effect not given here; activation, % (no concentration beside the values); in the data active = activation above about 50%; inconclusive = about 30% to 50%; inactive = below about 30%; also: 0% is about no effect; the text of the record puts the active cut at 80%
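Agonist activity was taken from a 110 s kinetic Ca2+ dye read on the FDSS after pinning compounds onto TRPML1-DL cells. The cells were seeded at 1,500/well with Tet inducer, incubated about 16 h, then dye-loaded at room temperature.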
TRPML1 inh: qHTS for Inhibitors of the Human Mucolipin Transient Receptor Potential 1 (TRPML1) | Mucolipin-1 (Homo sapiens), Q9GZU1 | TRPML1-inducible cells, Ca2+ dye fluorescence, FDSS; active compounds read low; inhibition of EC80 agonist-evoked calcium signal | activity change, negative = inhibition, % (concentration not given with the values) | 390,000 tested, 0.02% active; in the data active means activity change below about -50%; inconclusive means about -30% to -50%; inactive means above about -30%;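 also: stimulus is agonist 54-4 at its EC80 concentration; % is scaled to controls: 0 for no effect and ±100 for the full control effect; the text of the record puts the active cut at -80%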
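Calcium fluorescence in TRPML1-DL cells induced overnight with Tet: a 110 s read after compound pin addition, then a 110 s antagonist read after challenge with 54-4 at 4 uM final (EC80).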
TRPV1 PAM: HTS Assay for Compounds that Act as Potentiators of the Vanilloid Receptor 1; Transient receptor potential cation channel subfamily V member 1 (Homo sapiens), Q8NER1; TRPV1-expressing cells, Fluo-8 calcium influx, capsaicin EC20 potentiation; host cell line not named in the record; control for the full effect not named in the record; potentiation, % at 8.33 µM; 320,000 tested, 0.02% active; AID 540277, 2011; active means potentiation above 80%; inconclusive means 30% to 80%; inactive means below 30%; also: 0% is about no effect
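Fluo-8 calcium influx in TRPV1-expressing cells, kinetic read (ex 480/em 520 nm). Compound added and read 3 min for agonist activity, followed by capsaicin at EC20 final and 2 min further read for enhancement.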
CtBP-E1A inh: qHTS Assay for Inhibitors of the CtBP/E1A Interaction. activity change, % (no concentration beside the values). 340,000 tested, 0.49% active. AID 651724, 2012. AlphaScreen GST-E1A/His-CtBP binding, 1536-well; active compounds read low; control for the full effect not named in the record; in the data active means activity change below about -65%; inconclusive means about -30% to -65%; inactive means above about -30%; also: % is scaled to controls: 0 for no effect and ±100 for the full control effect
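Protein mix (5X: 125 nM each GST-E1A, His-CtBP) was incubated with pinned compound 2 h at 37 deg C in dark, in 50 mM Tris pH 8.0 buffer with 300 mM NaCl. Glutathione donor and nickel acceptor beads followed; AlphaScreen signal read after 1 h.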
Six1-Eya2 blk: qHTS Assay for Inhibitors of the Six1/Eya2 Interaction; Homeobox protein SIX1 (Homo sapiens) + Protein phosphatase EYA2 (Homo sapiens), …; AlphaScreen GST-Six1/His-Eya2 binding, biochemical; active compounds read low; control for the full effect not named in the record; activity change, % (test concentration not listed); 360,000 tested, 0.56% active; in the data active = activity change below about -65%; inconclusive = about -30% to -65%; inactive = above about -30%; also: % is scaled to controls: 0 for no effect and ±100 for the full control effect
Target sequence (O00167 whole entry, looked up): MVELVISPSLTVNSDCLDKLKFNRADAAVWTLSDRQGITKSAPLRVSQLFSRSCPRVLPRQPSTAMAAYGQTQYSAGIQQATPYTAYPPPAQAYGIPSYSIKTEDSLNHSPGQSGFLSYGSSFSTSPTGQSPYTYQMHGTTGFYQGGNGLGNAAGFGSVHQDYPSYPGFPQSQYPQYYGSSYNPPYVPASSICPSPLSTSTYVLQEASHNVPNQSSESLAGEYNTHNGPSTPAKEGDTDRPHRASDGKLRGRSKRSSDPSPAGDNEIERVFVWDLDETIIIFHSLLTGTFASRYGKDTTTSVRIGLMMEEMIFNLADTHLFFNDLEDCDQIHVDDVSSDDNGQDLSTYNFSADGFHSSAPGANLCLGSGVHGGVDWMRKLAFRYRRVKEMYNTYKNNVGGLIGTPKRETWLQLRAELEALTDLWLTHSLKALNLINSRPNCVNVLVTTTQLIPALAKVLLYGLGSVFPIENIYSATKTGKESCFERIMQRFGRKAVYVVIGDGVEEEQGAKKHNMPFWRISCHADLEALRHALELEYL
Target sequence (Q15475 whole entry, looked up): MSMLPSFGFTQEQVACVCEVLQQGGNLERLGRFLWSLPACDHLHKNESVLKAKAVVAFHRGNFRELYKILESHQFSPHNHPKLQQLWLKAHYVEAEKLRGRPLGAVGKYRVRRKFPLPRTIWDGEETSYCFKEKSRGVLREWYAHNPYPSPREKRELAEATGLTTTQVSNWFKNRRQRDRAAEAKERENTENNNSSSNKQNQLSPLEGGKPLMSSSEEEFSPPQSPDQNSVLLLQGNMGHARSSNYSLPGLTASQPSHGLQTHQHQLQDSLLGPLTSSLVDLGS
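GST-Six1 + His-Eya2 (5X stock: 250/500 nM); Tris pH 8.0, 300 mM NaCl, 0.05% BSA, 0.02% Tween 20; GSH donor/Ni acceptor beads; 1 h 37 °C dark; AlphaScreen readout.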
D2 PAM: Beta-Arrestin HTS for Positive Allosteric Modulators of the Human D2 Dopamine Receptor: Potentiators | DiscoveRx D2 beta-arrestin cells, luminescence, 90 min; 100% = 57 uM dopamine signal | potentiation, % (test concentration not listed) | 360,000 tested, 0.23% active; active = potentiation of 50% or more; inconclusive = 30% to 50%; inactive = 30% or less;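 also: compound concentration not given in the record; tested on top of an EC20 dose of dopamine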
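PathHunter beta-arrestin assay in DiscoveRx D2 cells. Compounds were added with an EC20 of dopamine (50 nM final) for 90 min at 37 deg C. Luminescence was read 1 h after detection reagent, with 57 uM dopamine as the EC100 control.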
* = called active by the depositor; ? = inconclusive; nt = no result given; & = joins results of further samples. Outcome played no part in choosing rows. About 0.95% of those tested had a hit in this group.

Second line of a record: TRPML1 agonist, TRPML1 inh, TRPV1 PAM, CtBP-E1A inh, Six1-Eya2 blk, D2 PAM
CCn1ccc(C(=O)Oc2ccc(Cl)cc2)n1
 : -0.2, 7.2, -1.2, -2.6, -13.3, 4.3
CC1CCCCN1C(=O)COC(=O)c1cc(-c2cccs2)nn1-c1ccccc1 (stereo unspecified)
 : -1.7, -9.0, 10.0, nt, -3.0, 7.2
Cc1ccc(Nc2nnns2)cc1
 : -0.8, -3.9, 17.0, -1.8, 12.0, -6.3
COc1cccc(NC(=O)c2cnn(-c3ccccc3)c2C)c1
 : 0.0, -0.6, -10.2, -3.3, 2.6, -2.6
Cc1ccnc2nc(C(=O)OCC(=O)Nc3ccc4c(c3)OCCO4)nn12
 : 0.0, 5.6, nt, 3.2, 2.1, -1.0
Cc1csc(=O)n1CCC(=O)OC(C)C(=O)NCc1ccccc1 (stereo unspecified)
 : -0.4, -3.8, nt, 10.2, 1.8, -4.0
COC(=O)Cc1ccc(NC(=S)NC2CC2)cc1
 : 0.1, 55.8, 1.6, 6.0, 2.5, -0.1
Cc1ccc2oc(=O)n(Cc3ccccc3)c2c1
 : 2.1, 4.2, -7.7, 18.3, 8.6, -0.5
O=C1CN(C(=O)COc2ccc(F)cc2Cl)c2ccccc2N1
 : 0.9, -22.1, 0.8, nt, 29.3, 6.5
N#Cc1ccc(NC(=O)NN2CCCCCC2)cc1
 : 0.1, -1.1, nt, 7.8, -2.5, -8.6
CCOCCCNC(=O)CN1C(=O)/C(=C\c2ccc(C)cc2)Sc2ccccc21
 : 0.1, 3.6, -7.9, -3.1, -4.9, -13.3
CN(C)C(CNC(=O)CCCN1C(=O)c2cccc3cccc(c23)C1=O)c1ccccc1 (stereo unspecified)
 : 1.8, 22.4, -5.6, -2.2, -10.3, -18.9
COc1ccc(OCCN2C(=O)c3cccc(N)c3C2=O)cc1
 : -0.2, 1.3, -0.5, 13.1, 17.0, -6.1
C/C(=N\NS(=O)(=O)c1ccc(Br)cc1)c1ccc2c(c1)OCO2
 : 0.6, -4.6, 19.9, 3.6, -1.7, 1.0
CN(C(=O)c1ccc(NC(=O)Cc2ccc(NC(=O)C3CCN(C(=O)C4CCC4)CC3)cc2)cc1)C1CC1
 : 0.1, -3.6, 12.6, 0.3, 4.8, -3.9
CC(Oc1ccccc1)C(=O)OCC(=O)Nc1sccc1C(N)=O (stereo unspecified)
 : 2.4, 22.7, 6.5, -2.2, -2.6, 11.7
CCCCOc1ccc(C(=O)NCC(=O)NCC2CCCO2)cc1 (stereo unspecified)
 : 0.4, 8.2, 11.1, 10.4, 1.5, 9.2
COc1ccc(/C=C2\Oc3cc(OC(=O)N4CCOCC4)ccc3C2=O)cc1
 : -0.7, -9.6, 10.3, nt, 3.0, -15.2
O=S1(=O)C=C(SCCN2CCCCC2)c2ccccc21
 : -0.5, -3.2, 3.0, -1.6, -3.0, -27.6
CC(C(=O)O)(C1CCCCC1)C1(O)CCCCC1 (stereo unspecified)
 : -0.8, nt, nt, 6.8, 7.5, -1.5
O=C(OCc1cc(=O)oc2cc(O)ccc12)c1cc(S(=O)(=O)N2CCOCC2)ccc1F
 : -0.5, 1.0, 6.8, 2.8, -8.6, 27.7
CCN1C(=O)C(=O)N(CC(=O)Nc2ccccc2OC(F)F)C1=O
 : -1.4, 21.1, 0.4, nt, -2.6, 17.4
CCN1CCN(C(=O)c2ccc(COc3ccc(Cl)cc3)o2)CC1
 : -0.1, 1.8, -15.7, -4.8, 2.9, -16.0
CCNc1nc(NCC)nc(Oc2ccc(C(=O)OC)cc2)n1
 : -0.1, 9.3, 11.8, -6.7, -5.8, -9.9
O=C(Nc1ccccc1)C1=C[C@@H](c2ccc(Br)cc2)C[C@@H](OCc2ccc(CO)cc2)O1
 : 1.2, 46.6, -20.3, -2.8, -5.0, -12.4
CC(C)(C)C(=O)CN1C(=O)NC2(CCOc3ccccc32)C1=O (stereo unspecified)
 : -0.3, -13.4, 4.8, -11.3, 15.4, -16.3
COc1c(O)ccc(/C=N/NC(=O)c2ccc3c(c2)OCCO3)c1[N+](=O)[O-]
 : 0.8, -29.1, -6.5, -8.0, -0.8, 1.1
C=CCOc1ccc2ccccc2c1/C=N/O
 : -0.1, -3.1, -2.9, 2.3, -0.7, -5.6
O=C(Cn1cnc2ccccc21)N/N=C/c1ccccc1
 : 0.9, -17.4, -23.2, -0.1, -5.0, -13.0
O=C1c2ccccc2C(=O)N1CCSC(=S)N1CCOCC1
 : -0.2, -17.7, -27.1, 6.3, 4.9, -1.1

Quoted at random: 5 records from the list, in no set order.
Second line of a record: TRPML1 agonist, TRPML1 inh, TRPV1 PAM, CtBP-E1A inh, Six1-Eya2 blk, D2 PAM
C=CCOc1ccc2ccccc2c1/C=N/O
 : -0.1, -3.1, -2.9, 2.3, -0.7, -5.6
C/C(=N\NS(=O)(=O)c1ccc(Br)cc1)c1ccc2c(c1)OCO2
 : 0.6, -4.6, 19.9, 3.6, -1.7, 1.0
O=C1c2ccccc2C(=O)N1CCSC(=S)N1CCOCC1
 : -0.2, -17.7, -27.1, 6.3, 4.9, -1.1
Cc1ccnc2nc(C(=O)OCC(=O)Nc3ccc4c(c3)OCCO4)nn12
 : 0.0, 5.6, nt, 3.2, 2.1, -1.0
CC(C(=O)O)(C1CCCCC1)C1(O)CCCCC1 (stereo unspecified)
 : -0.8, nt, nt, 6.8, 7.5, -1.5

(listing goes on)
Second line of a record: TRPML1 agonist, TRPML1 inh, TRPV1 PAM, CtBP-E1A inh, Six1-Eya2 blk, D2 PAM
COc1ccc(NC(=O)Nc2ccccc2F)c([N+](=O)[O-])c1
 : 0.8, -23.2, 18.3, nt, -9.3, -5.8
O=c1ccc2ccccc2n1Cc1cccc(F)c1
 : 4.8, 16.3, 4.2, nt, 1.3, -11.7
CN(c1ccc(C(=O)N2CCN(Cc3ccccc3)CC2)cc1)S(=O)(=O)c1ccccc1
 : 0.3, 4.6, -0.2, -0.4, -11.7, 9.8
COc1ccc(-c2cc(C(=O)NCCCN3CCCC3=O)c3ccccc3n2)cc1
 : 0.0, -2.2, 0.7, 1.1, 1.7, -11.1
CC1=C(C(=O)NCc2ccccc2)C(c2ccc(C)o2)n2ncnc2N1 (stereo unspecified)
 : -1.0, 7.0, -4.0, 6.2, 0.0, 20.5
O=C(Nc1ccc2sc3ccccc3c(=O)c2c1)c1ccccc1Cl
 : 1.2, 12.0, 1.2, ?, ?, -9.2
CCOc1ccc(S(=O)(=O)N2CCCCC2)cc1NC(=O)CCc1ccc(OC)cc1
 : 0.1, 3.5, 8.1, 1.0, -7.9, -17.9
Cc1ccnc2ccc(-c3nc4ccccc4o3)cc12
 : 0.7&1.5, 3.5, -4.4, -2.8, 3.4, -14.9
Nc1ccc2c(c1)C(=O)c1ccc(Cl)cc1-2
 : 2.0, -23.7, nt, ?, -29.4, -10.2
Cc1ccccc1C(=O)Nc1ccnn1C1CCN(CC2CC=CCC2)CC1 (stereo unspecified)
 : 1.1, -24.4, 1.8, -1.0, 9.8, -38.8
CC(C)Oc1ccc(C(CC(=O)NCCCN(C)C)c2ccc(F)cc2)cc1 (stereo unspecified)
 : 0.4, 10.0, 18.0, 9.1, 5.5, -45.2
CSc1ccccc1NC(=O)c1ccccn1
 : -0.6, 0.5, -4.4, -0.6, 6.7, 2.0
COc1ccccc1Nc1nc2ccc(C)cc2n2cnnc12
 : 0.1, -20.4, -2.2, nt, 7.9, -0.6
COc1ccc(Oc2nc(-c3ccccn3)ncc2OC)cc1
 : 0.9, 20.8, 2.8, -16.3, ?, -4.8
C[C@@H]1CN([C@@H](C)CO)C(=O)CCCn2nncc2CO[C@@H]1CN(C)C(=O)Nc1ccccc1C(F)(F)F
 : 0.1, 20.2, nt, 7.0, 9.7, -5.4
C/C(=N/NS(=O)(=O)c1ccc(C)c(C)c1)c1c[nH]c2ccccc12
 : -0.4, 2.7, 0.9, 2.5, -3.5, -8.3
CCOC(=O)N1C(=O)NC(=O)C1c1ccc(OC)cc1 (stereo unspecified)
 : -0.1, -11.4, nt, 16.7, 13.9, -6.9
CCC(=O)N(Cc1cc(=O)[nH]c2ccccc12)c1ccc(OC)cc1
 : 0.4, 29.4, 6.9, -1.2, 3.2, -7.6
CCCOc1ccc(C(=O)Nc2ccccc2[N+](=O)[O-])cc1
 : 4.9, 1.0, nt, ?, ?, 6.7
O=C(Nc1cccc(C(F)(F)F)c1)Nc1nnc([C@H]2C[C@H](O)[C@@H](CO)O2)s1
 : -0.7, nt, nt, -5.8, -11.6, -4.5
COc1ccccc1C(=O)NNC(=O)c1cccc(O)c1
 : nt, nt, 9.0, nt, 3.0, ?
Cn1ccc(-c2ccccc2)c(C#N)c1=O
 : -0.7, -5.9, -4.8, 4.2, 6.0, -3.9
CN(C)S(=O)(=O)c1cccc(NC(=O)COc2ccc3ccccc3c2)c1
 : -1.5, 0.9, 2.9, nt, -4.6, -27.4
N#C/C(=C(/O)CN1CCCCC1)c1nc(-c2ccc(Cl)cc2)cs1
 : -0.3, -8.9, nt, 9.7, 0.1, -6.7
Cc1cnc(NC(=O)C2CC(=O)N(c3ccc4c(c3)OCCO4)C2)s1 (stereo unspecified)
 : 0.3, -19.8, nt, 0.0, -0.5, -5.5
CCOC(=O)C(CC(=O)O)NCc1ccco1 (stereo unspecified)
 : 0.2, 8.0, 22.7, 8.0, 4.1, -6.5
O=C(NC(=S)N1CCN(c2ccc(F)cc2)CC1)c1cccs1
 : 2.0, 22.4, 13.9, -1.6, -5.9, -15.9
NS(=O)(=O)c1ccc(NC(=O)CN(C(=O)C(F)(F)F)C2CCCC2)cc1
 : 0.1, 35.2, nt, -13.7, 7.8, -13.0
NC(=O)c1ccc(Nc2nc(C(N)c3ccccc3Cl)cs2)cc1 (stereo unspecified)
 : -0.3, nt, nt, -21.1, -7.1, -6.7
NC(=O)c1ccc(NC(=O)c2cc(S(=O)(=O)N3CCCCC3)ccc2N2CCOCC2)cc1
 : -0.3, 8.7, 2.8, nt, 3.8, 1.3

Continuation.
molecule,TRPML1 agonist,TRPML1 inh,TRPV1 PAM,CtBP-E1A inh,Six1-Eya2 blk,D2 PAM
COc1ccc(CNC(=O)C2Cc3c(-c4ccccc4)ccnc3O2)cc1OC (stereo unspecified),-0.6,nt,nt,22.8,6.9,6.2
Cc1cccc(NC(=O)C(=O)NCC2CCCO2)c1 (stereo unspecified),-1.0,1.9,-3.8,6.0,3.1,-10.1
CC(=O)c1cc(-c2nc3ccccc3n2C)n(C)c1,-0.6,-0.2,5.0,0.5,-0.4,-17.9
CCOC(=O)C1=CCC(c2ccccc2)N(S(=O)(=O)c2ccccc2C)C1 (stereo unspecified),-0.4,nt,nt,9.0,6.2,0.6

High-throughput results from PubChem.
